PMP22 txn prim: Cell-based coincidence reporter assay to measure PMP22 gene transcription in S16 Pmp22-F2sN cells - Primary screen. S16 Pmp22-F2sN Schwann cells (luciferase reporters placed in the Pmp22 gene), FLuc/NLuc coincidence luminescence, 24 h. Potency, µM (highest dose often 57.5 µM), without a hit: top-dose activity change, negative = inhibition, usual class: inhibitors. 43,000 compounds, 2% hits. AID 1508649, 2021; active = clear falling dose curves in both reporters; inconclusive = both reporters move, but less clearly or upward; inactive = either reporter flat; the % is the NLuc reporter signal; further: on the % scale 0 is the no-effect control and ±100 the full control effect; some results filed as inactive show a strong effect at the top dose
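S16 Schwann cells carrying FLuc/NLuc coincidence reporter in the Pmp22 3' UTR treated with compound 24 h at 37C; FLuc then NLuc luminescence read sequentially by dual-luciferase reagents.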
HTT prom inh: Primary qHTS for Identification of Small Molecule Inhibitors of Huntingtin Promoter Activity | 48,000 compounds, 0.93% hits | Potency, µM (series often up to 57.5 µM), for inactives: at the highest dose activity change, negative = inhibition, actives largely listed as inhibitors | HEK293 HTT promoter firefly luciferase reporter (activity 0% = vehicle and -100% = no light), 24 h; active means well fitted inhibition curve with a large enough effect; inconclusive means small, poorly fitted or top-dose-only effect; inactive means no such curve, though single readings can be large or run the other way; further: nearly all actives have a fitted effect of over 50% in size
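HEK293 Fluc reporter, 2,500 cells/well, 24 h pre-culture; cpds up to 57.5 uM final, 24 h 37 degrees C; Dual-Glo, 10 min RT; normalized vehicle = 0%, zero RLU = -100%.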
* marks the source's active call; other numbers are inactive results; [ ] = dose if it differs, or a comment. Potency means the concentration at half of the fitted maximal effect.

How did COc1ccc(CCNC(=O)c2ccc3c(c2)N(Cc2ccc(Cl)cc2)C(=O)c2ccccc2S3)cc1OC do in these assays?
PMP22 txn prim: 2.7%; HTT prom inh: -27.1%

What do the screens show for `CCN(CC)CCCNC(=O)C(=O)Nc1ccc2nc3n(c(=O)c2c1)CCCCC3`?
PMP22 txn prim: -20.9%; HTT prom inh: 10.3%

What do the screens show for `CN1CCN(C(=O)C(=O)Nc2c3c(nn2-c2ccc(F)cc2)CSC3)CC1`?
PMP22 txn prim: 29.6%; HTT prom inh: -11.0%

How did Cc1ccc(C)c2sc(N3CCN(C(=O)C(C)(C)C)CC3)nc12 do in these assays?
PMP22 txn prim: 3.9%; HTT prom inh: 0.0%

What do the screens show for `CCOC(=O)c1c(C)oc2nc(C)nc(Nc3cc(C)cc(C)c3)c12`?
PMP22 txn prim: -10.2%; HTT prom inh: 4.5%

Results for Cc1cccc(Cn2c(COc3ccccc3)nc3ccccc32)c1 ?
PMP22 txn prim: -13.3%; HTT prom inh: -10.1%

What do the screens show for `CCOC(=O)c1c(S(=O)(=O)N2CCCC(C(=O)NCc3cccc(C)c3)C2)c(C)n(C)c1C` (centres undefined)?
PMP22 txn prim: 4.1%; HTT prom inh: -2.3%

How did Cc1ccc2c(c1)c1c(c(=O)n(-c3ccccc3)c(=O)n1CC(=O)NCC1CCCO1)n2C (centres undefined) do in these assays?
PMP22 txn prim: -2.2%; HTT prom inh: 1.2%

How did Cc1ccc(NC(=O)C(=O)NCC2(c3ccccc3)CCCC2)cc1Cl do in these assays?
PMP22 txn prim: -7.9%; HTT prom inh: -7.9%

What do the screens show for `CN(C)CCN(Cc1ccco1)C(=O)c1cc2c(s1)-c1ccccc1OC2`?
PMP22 txn prim: 16.8µM*; HTT prom inh: -27.6%

What do the screens show for `O=C(NC1CCCCC1)c1ccc2c(c1)N(Cc1ccccc1)C(=O)c1ccccc1S2`?
PMP22 txn prim: -5.5%; HTT prom inh: -2.1%

What do the screens show for `O=C(NCc1ccccc1)c1ccc(NC(=O)N2CCSc3ncccc32)cc1`?
PMP22 txn prim: -8.4%; HTT prom inh: -36.9%

What do the screens show for `CCC(C)NC(=O)C1=CC(c2ccc3c(c2)OCO3)=NS(=O)(=O)N1C` (centres undefined)?
PMP22 txn prim: 22.6%; HTT prom inh: -13.8%

Results for CCCC(=O)NCC(c1ccc2c(c1)OCO2)N1CCOCC1 (centres undefined) ?
PMP22 txn prim: 0.5%; HTT prom inh: -4.0%

What do the screens show for `Oc1c(C(c2ccc(Cl)cc2Cl)N2CCOCC2)sc2nc(-c3ccco3)nn12` (centres undefined)?
PMP22 txn prim: 23.9%; HTT prom inh: -10.4%

How did CCN1CCC(N(Cc2ccc3c(c2)OCO3)C(=O)Nc2ccccc2OC)CC1 do in these assays?
PMP22 txn prim: 8.1%; HTT prom inh: -10.6%

What do the screens show for `CCc1cccc(C)c1NC(=O)COCc1cc(-c2ccc3c(c2)OCO3)on1`?
PMP22 txn prim: inconclusive; HTT prom inh: inconclusive

Results for CCCSc1ncc(Cl)c(C(=O)Nc2sc3c(c2C(N)=O)CCCC3)n1 ?
PMP22 txn prim: -8.0%; HTT prom inh: -4.7%

How did Nc1cc(=O)nc(SCC(=O)Nc2ccc(F)cc2)n1-c1ccc(Cl)cc1 do in these assays?
PMP22 txn prim: inconclusive; HTT prom inh: inconclusive

Results for COc1cc2c(cc1OC)n(CC(=O)c1ccc(C)cc1C)c(=O)n1nc(CCn3nc(C)cc3C)nc21 ?
PMP22 txn prim: -1.8%; HTT prom inh: -8.3%

Results for CCOC(=O)[C@H](CCc1ccccc1)N[C@@H](C)C(=O)N1Cc2cc(OC)c(OC)cc2C[C@H]1C(=O)O ?
HTT prom inh: 0.9%

How did CCOc1ccc(C(=O)Nc2ccc3oc(-c4cccc5ccccc45)nc3c2)cc1 do in these assays?
PMP22 txn prim: -28.1%; HTT prom inh: -13.2%

Results for Cc1cccc(C(=O)Nc2cccc(C(=O)OCc3cc(=O)n4ccsc4n3)c2)c1 ?
PMP22 txn prim: -14.9%; HTT prom inh: -0.1%

Results for Cc1ccc(-c2nnc(SCC(=O)NCCC(C)C)nc2-c2ccc(C)cc2)cc1 ?
PMP22 txn prim: inconclusive; HTT prom inh: inconclusive

What do the screens show for `CN1C(=O)Cc2cc(S(=O)(=O)CCC(=O)Nc3ccc(Cl)cc3)ccc21`?
PMP22 txn prim: -19.9%; HTT prom inh: -12.9%

How did COc1ccc(-c2cn3cccnc3n2)cc1NC(=O)c1c(F)cccc1F do in these assays?
PMP22 txn prim: -9.1%; HTT prom inh: 5.2%

Results for CC1CN(C(=O)N2CCC(C(=O)NC3CCCCCC3)CC2)c2cc(Cl)ccc2O1 (centres undefined) ?
PMP22 txn prim: -90.2%; HTT prom inh: 1.9%

Results for Cc1ccccc1COC(=O)c1ccc(-c2nnn(Cc3ccccc3F)n2)cc1 ?
PMP22 txn prim: -12.3%; HTT prom inh: 21.3%

How did O=C(OOC(=O)c1ccccc1)c1ccccc1 do in these assays?
HTT prom inh: -1.9%

What do the screens show for `CCOC(=O)c1cc(-c2ccccc2)n(-c2cccc(C(=O)NC(C)CC)c2)c1C` (centres undefined)?
PMP22 txn prim: inconclusive; HTT prom inh: inconclusive

Three records drawn at random from the list so far:
What do the screens show for `CCOC(=O)c1cc(-c2ccccc2)n(-c2cccc(C(=O)NC(C)CC)c2)c1C` (centres undefined)?
PMP22 txn prim: inconclusive; HTT prom inh: inconclusive

What do the screens show for `CCOC(=O)c1c(S(=O)(=O)N2CCCC(C(=O)NCc3cccc(C)c3)C2)c(C)n(C)c1C` (centres undefined)?
PMP22 txn prim: 4.1%; HTT prom inh: -2.3%

How did COc1ccc(CCNC(=O)c2ccc3c(c2)N(Cc2ccc(Cl)cc2)C(=O)c2ccccc2S3)cc1OC do in these assays?
PMP22 txn prim: 2.7%; HTT prom inh: -27.1%

The listing picks up; the 4 compounds before the break are reprinted first.
Results for CC1CN(C(=O)N2CCC(C(=O)NC3CCCCCC3)CC2)c2cc(Cl)ccc2O1 (centres undefined) ?
PMP22 txn prim: -90.2%; HTT prom inh: 1.9%

Results for Cc1ccccc1COC(=O)c1ccc(-c2nnn(Cc3ccccc3F)n2)cc1 ?
PMP22 txn prim: -12.3%; HTT prom inh: 21.3%

How did O=C(OOC(=O)c1ccccc1)c1ccccc1 do in these assays?
HTT prom inh: -1.9%

What do the screens show for `CCOC(=O)c1cc(-c2ccccc2)n(-c2cccc(C(=O)NC(C)CC)c2)c1C` (centres undefined)?
PMP22 txn prim: inconclusive; HTT prom inh: inconclusive

Results for CCCc1ccc(NC(=O)C2CCN(c3cnccn3)CC2)cc1 ?
PMP22 txn prim: 3.9%; HTT prom inh: inconclusive

Results for C#CCN(C)Cc1ccccc1 ?
HTT prom inh: 6.6%

What do the screens show for `Cc1ccc(Nc2nnc(-c3ccc(C)c(S(=O)(=O)NCc4nc5ccccc5[nH]4)c3)c3ccccc23)cc1`?
PMP22 txn prim: -39.2%; HTT prom inh: inconclusive

How did Cc1ccc(CNC(=O)c2sc3nc4n(c(=O)c3c2C)CCCC4)cc1 do in these assays?
PMP22 txn prim: -14.1%; HTT prom inh: 29.6%

What do the screens show for `COc1ccc(Br)cc1CC1C(=O)Nc2ccccc21` (centres undefined)?
PMP22 txn prim: 14.2µM*; HTT prom inh: 12.6µM*

How did CC(C)NC(=O)CSc1cn(CC(=O)N2CCCCCC2)c2ccccc12 do in these assays?
PMP22 txn prim: -27.3%; HTT prom inh: -23.7%

How did Cc1ccc(CNC(=O)C2CCCN(c3nc4ccccc4n4cccc34)C2)cc1 (centres undefined) do in these assays?
PMP22 txn prim: -38.6%; HTT prom inh: -24.2%

How did CC(=O)c1cccc(Nc2ncnc3c2cnn3-c2cccc(Cl)c2)c1 do in these assays?
PMP22 txn prim: inconclusive; HTT prom inh: 1.2%

How did CCOc1ccc(NC(=O)C2CCN(C(=O)N3CC(C)Oc4ccc(Cl)cc43)CC2)cc1 (centres undefined) do in these assays?
PMP22 txn prim: inconclusive; HTT prom inh: inconclusive

Results for COc1cc(-c2nc3ccc(Cl)cn3c2Nc2ccc3c(c2)OCO3)ccc1O ?
PMP22 txn prim: inconclusive; HTT prom inh: inconclusive

How did COc1ccccc1CNC(=O)CN1N=C(c2ccccc2)CCC1=O do in these assays?
PMP22 txn prim: -38.2%; HTT prom inh: -5.2%

Results for CCOC(=O)CSc1nc2ccccc2c(=O)n1-c1cccc(C)c1 ?
PMP22 txn prim: -6.0%; HTT prom inh: -17.8%

Results for CC(=O)N[C@H]1[C@H]([C@H](O)[C@H](O)CO)OC(C(=O)O)=C[C@@H]1N=C(N)N ?
HTT prom inh: -6.6%

Results for O=C(Nc1cccc(-c2nc3cc(Cl)ccc3o2)c1)c1cc([N+](=O)[O-])ccc1N1CCOCC1 ?
PMP22 txn prim: -30.9%; HTT prom inh: -2.3%

How did CC(=O)Nc1ccc(NC(=O)C(Cc2ccccc2)NS(=O)(=O)c2ccc3c(c2)oc(=O)n3C)cc1 (centres undefined) do in these assays?
PMP22 txn prim: -4.4%; HTT prom inh: -9.4%

How did Cc1cc2c(cc1S(=O)(=O)CCC(=O)N(C)C1CCCCC1)OCC(=O)N2 do in these assays?
PMP22 txn prim: -27.8%; HTT prom inh: -10.9%

Results for Cc1cc(C)c2c(CC(=O)Nc3ccccc3C(F)(F)F)coc2c1 ?
PMP22 txn prim: 4.0%; HTT prom inh: -17.1%

How did O=C(Nc1ccc(Cl)c(-c2nc3cc(Cl)ccc3o2)c1)c1cc([N+](=O)[O-])ccc1N1CCOCC1 do in these assays?
PMP22 txn prim: -25.8%; HTT prom inh: inconclusive

Results for Cc1c(-c2nsc(NC(=O)c3cccs3)n2)nnn1-c1ccc(F)cc1 ?
PMP22 txn prim: 0.6%; HTT prom inh: 40.4%[activator]

Results for Cc1cc(Nc2ccccc2F)n2nc(Cc3ccc(Cl)cc3)nc2n1 ?
PMP22 txn prim: -18.6%; HTT prom inh: -18.0%

What do the screens show for `COc1ccc(F)cc1S(=O)(=O)NCCc1csc(-c2ccc(Cl)cc2)n1`?
PMP22 txn prim: inconclusive; HTT prom inh: inconclusive

How did COc1cc2ccccc2cc1C(=O)Nc1cccc(-c2nc3ccccc3o2)c1 do in these assays?
PMP22 txn prim: inconclusive; HTT prom inh: inconclusive

What do the screens show for `COc1ccc(N(C(=O)c2ccc(OC)c(OC)c2)S(=O)(=O)c2ccc(Cl)cc2)cc1`?
PMP22 txn prim: inconclusive; HTT prom inh: inconclusive

What do the screens show for `O=c1c2sccc2n(Cc2cc(=O)n3cc(Cl)ccc3n2)c(=O)n1-c1ccccc1`?
PMP22 txn prim: -14.0%; HTT prom inh: -10.4%

Results for COc1ccc(NS(=O)(=O)c2cc(Br)cc3c2N(C(=O)C2CC2)CC3)cc1OC ?
PMP22 txn prim: 13.9µM*; HTT prom inh: 5.62µM*

What do the screens show for `COc1cccc(Oc2nc(C)nc3c2oc2ccccc23)c1`?
PMP22 txn prim: -3.0%; HTT prom inh: inconclusive

What do the screens show for `CCOc1ccc(CNC(=O)CCS(=O)(=O)c2cc3c(cc2Cl)NC(=O)CO3)cc1OC`?
PMP22 txn prim: -22.6%; HTT prom inh: 9.3%

What do the screens show for `Cc1cc(NS(=O)(=O)c2ccc(NC(=O)COc3ccc(Br)cc3C)cc2)no1`?
PMP22 txn prim: 27.1%; HTT prom inh: -19.6%

How did CC(=O)C1=C(c2ccc(Br)cc2)N(C(C)=O)n2c(nnc2C2CCCCC2)S1 do in these assays?
PMP22 txn prim: 20.9%; HTT prom inh: -15.8%

Results for CC1(c2ccccc2)OC(C(=O)O)=CC1=O (centres undefined) ?
HTT prom inh: 2.4%

Results for COc1ccc(CC(=O)Nc2cc(-c3cn4cccnc4n3)ccc2C)cc1OC ?
PMP22 txn prim: inconclusive; HTT prom inh: inconclusive

Results for CCOc1ccccc1NC(=O)C(CC(C)C)NS(=O)(=O)c1ccc2c(c1)CCN2C(C)=O (centres undefined) ?
PMP22 txn prim: -6.1%; HTT prom inh: -15.3%

Results for CCc1cnc2c(c1SC(C(C)=O)C(=O)N(C)C)c(=O)n(C)c(=O)n2C (centres undefined) ?
PMP22 txn prim: inconclusive; HTT prom inh: -7.8%

How did COc1ccc(-c2nnc(SCC(=O)Nc3cccc(C(F)(F)F)c3)nc2-c2ccc(OC)cc2)cc1 do in these assays?
PMP22 txn prim: -28.6%; HTT prom inh: -1.2%

What do the screens show for `Cc1ccc(-c2cn3c(n2)sc2cc(C(=O)NC4CCCc5ccccc54)ccc23)cc1` (centres undefined)?
PMP22 txn prim: -13.5%; HTT prom inh: 47.4%[activator]

Results for COc1ccccc1N1CCN(c2nc(-c3ccc(C)cc3)nc3ccccc23)CC1 ?
PMP22 txn prim: -23.7%; HTT prom inh: inconclusive

How did CC(=O)c1ccc(N2CCN(c3ccc(NC(=O)c4cccs4)cc3C(=O)O)CC2)cc1 do in these assays?
PMP22 txn prim: 22.2%; HTT prom inh: -9.4%

How did CCS(=O)(=O)NCC(c1ccco1)N1CCN(c2ccc(F)cc2)CC1 (centres undefined) do in these assays?
PMP22 txn prim: 4.7%; HTT prom inh: -13.1%

What do the screens show for `CCC(=O)Nc1ccc2nc(SCCOc3cccc(C)c3)sc2c1`?
PMP22 txn prim: -21.1%; HTT prom inh: inconclusive

Screening results from PubChem.
